Compound activity as filed in PubChem.
GLA inh pH 4.5 – blocks human alpha-galactosidase A at pH 4.5 | 230,000 tested, under 10 active | purified enzyme, 4-MU-alpha-Gal fluorescence, pH 4.5 | AID 1467 | activity change, negative = inhibition, % at 105 µM | P06280; inconclusive = small, poorly fitted or top-dose-only inhibition, or a rising curve; inactive = flat fitted curve, though single readings scatter; no compound was filed as active;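 also: 0% = full activity with enzyme and -100% = basal without enzyme; dose as in the result columns while the protocol names 77 µM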
Rango complex inh – Rango-importin beta binding inhibition; Q14974; Rango CFP/YFP FRET sensor + importin beta, 45 min; Potency, µM (highest dose often 92.2 µM), inactives show at the highest dose inhibition of complex formation; actives 0.031% (n = 340,000); AID 540263; active = rising FRET ratio curve, often small or poorly fitted; inconclusive = mostly compound fluorescence or quenching in the first reads; inactive = flat curves in all reads;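 also: potency is read from the fitted curve at half-maximal effect; 0% = DMSO wells and 100% = buffer wells lacking importin beta; nearly all actives have a fitted effect of over 15% in size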
Target sequence (Q14974 whole entry, looked up): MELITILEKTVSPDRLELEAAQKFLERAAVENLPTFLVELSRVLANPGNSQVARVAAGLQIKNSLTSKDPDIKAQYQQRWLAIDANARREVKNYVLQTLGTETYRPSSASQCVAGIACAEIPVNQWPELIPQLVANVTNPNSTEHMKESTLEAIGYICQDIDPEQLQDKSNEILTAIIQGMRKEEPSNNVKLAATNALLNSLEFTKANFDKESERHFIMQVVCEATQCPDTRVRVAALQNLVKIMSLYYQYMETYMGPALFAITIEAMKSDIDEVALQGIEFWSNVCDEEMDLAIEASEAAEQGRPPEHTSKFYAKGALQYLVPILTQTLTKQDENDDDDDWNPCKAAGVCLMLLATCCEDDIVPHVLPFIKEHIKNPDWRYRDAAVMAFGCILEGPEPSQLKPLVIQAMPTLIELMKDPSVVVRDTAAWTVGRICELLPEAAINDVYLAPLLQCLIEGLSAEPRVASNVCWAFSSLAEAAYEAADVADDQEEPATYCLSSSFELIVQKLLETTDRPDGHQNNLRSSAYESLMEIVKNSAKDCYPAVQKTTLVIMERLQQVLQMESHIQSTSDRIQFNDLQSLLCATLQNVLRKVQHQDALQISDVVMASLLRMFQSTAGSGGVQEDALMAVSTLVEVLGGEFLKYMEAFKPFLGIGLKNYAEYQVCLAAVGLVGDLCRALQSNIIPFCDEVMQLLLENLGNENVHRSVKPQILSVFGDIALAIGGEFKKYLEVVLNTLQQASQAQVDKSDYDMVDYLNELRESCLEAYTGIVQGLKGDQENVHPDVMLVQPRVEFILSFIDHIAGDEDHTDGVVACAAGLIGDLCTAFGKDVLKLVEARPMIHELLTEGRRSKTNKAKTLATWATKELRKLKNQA
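FRET biosensor Rango (snurportin 1 IBB between N-terminal EYFP and C-terminal Cerulean), 50 nM in PBS/1 mM DTT/0.02% Tween-20/0.1% BSA, preincubated 5 min RT with compound; 0.125 microM importin beta added, 45 min RT, CFP/YFP FRET ratio read.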
Rango release inh – inhibitors of RanGTP-induced Rango-importin beta complex dissociation; Biochemical FRET Rango-importin beta, RanGTP-induced dissociation; actives 0.071% (n = 340,000); O95149+P62826; Potency, µM (titrated, usually from 46.1 µM), for inactives: at the top dose activity change, negative = inhibition; active means falling FRET ratio curve, often poorly fitted, with flat reads before Ran was added; inconclusive means other falling curves, or compound fluorescence or quenching; inactive means flat or rising ratio curve;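 also: potency is read from the fitted curve at half-maximal effect; % of control where 0% means no effect; nearly all actives have a fitted effect of over 45% in size; -100% = wells without RanGTP and RCC1; the record marks most hits as doubtful in a second field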
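Two FRET readings bracket the reaction: one 5 min after compound meets Rango–importin beta, another 45 min after RanGTP-RCC1 (0.6 uM Ran, 0.2 uM RCC1, 2 mM GTP) is added. Only the second defines inhibition.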
miR-21 FLuc – raises the signal of a miR-21 reporter. HeLa miR-21 FLuc reporter, luciferase, 48 h. Potency, µM (series often up to 38.3 µM), for the others: at the highest dose reporter change, positive = more light. 340,000 tested, under 10 active. AID 2288; active = well fitted rising curve with a large enough effect; inconclusive = small, poorly fitted or top-dose-only effect; inactive = no such curve, though single readings can be large or run the other way;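 also: % of control where 0% means no effect; miR-21 action dims this reporter so a rising signal means less miR-21 action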
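Compounds were titrated across several concentrations (up to approximately 40 uM) and incubated 48 hours with HeLa miR-21-FLuc reporter cells (miR-21 target sequence downstream of FLuc, endogenous miR-21). Readout was firefly luciferase luminescence after lytic detection reagent.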
An asterisk follows results filed as active; ? = inconclusive; . = no result given; & = joins results of further samples; [ ] = dose if it differs, or a comment. This is a subset; rates above refer to the full screens.

SMILES	GLA inh pH 4.5	Rango complex inh	Rango release inh	miR-21 FLuc
COc1ccc(NS(=O)(=O)c2ccc(C)c(C(=O)N3CCN(Cc4cc(OC)ccc4OC)CC3)c2)cc1	.	2.1%	2%	.
COc1ncnc2c1N=C1CC(C)(C)CC(N)=C1S2	-26	6.1%	-8%	-7%
Cn1cc(Br)c(-c2cccc(NC(=O)CC(C)(C)CC(=O)O)c2)n1	-5	0.0%	-9%	-13%
COc1ccc(N2CCN(C(=O)c3ccccc3NS(=O)(=O)c3ccccc3)CC2)cc1	.	-1.3%	-2%	-29%
CCCn1c(=O)c(C(=O)NCCc2ccccc2)c(O)c2ccccc21	.	0.0%	4%	-12%
O=C(O)/C=C/C(=O)Nc1ccc(SC(F)(F)C(F)(F)C(F)(F)F)cc1	0	0.2%	34%	-15%
CC(C)C(=O)Nc1nc(-c2ccc3c(c2)CCN3C(=O)C2CC2)cs1	.	-2.6%	0%	-52%
Cn1c(Nn2cnnc2)nc2ccccc21	-5	3.8%	2%	-5%
CN(Cc1ccccc1)C(=O)c1cccc(NC(=O)Cc2ccc(NC(=O)C3CCN(C(=O)c4ccccc4)CC3)cc2)c1	.	2.7%	-4%	.
CC1CC(C)CN(C(=O)CCNS(=O)(=O)c2cccs2)C1 (centres undefined)	-1	5.9%	-13%	-22%
CN(C(=O)COC(=O)c1ccc([N+](=O)[O-])cc1)c1ccccc1	6	4.1%	9%	0%
O=S(=O)(Nc1ccc(-c2cn3c(n2)SCC3)cc1)c1cccs1	-1	1.7%	-14%	-20%
CCCCNC(=O)C1CCC(CNS(=O)(=O)c2ccc(C)cc2)CC1 (centres undefined)	-2	0.2%	1%	0%&2%
CC(C)C(NC(=O)/C=C/c1cccc([N+](=O)[O-])c1)C(C)C	3	-1.6%	-18%	-3%
CCCc1cc(-c2ccc3c(c2)COc2c4ccccc4nn2-3)on1	.	-2.7%	6%	.
COc1ccc(C(=O)Nc2ccc(Cl)cc2C(=O)NCc2ccco2)cc1OC	1	5.6%	-8%	3%
COc1cc(CNC2CCCc3ccccc32)cc(OC)c1OC (centres undefined)	0	-6.9%	-8%	-6%
COC(=O)c1ccc2c(=O)n(CCN3CCOCC3)c(SCC(=O)Nc3ccc(OC)cc3OC)nc2c1	.	6.3%	-3%	0%
O=S(=O)(N/N=C\c1cccn1-c1ccccc1)c1ccc2ccccc2c1	-15	0.5%	2%	-8%
O=C(OCC(=O)N1CCCC1=O)c1ncc(Cl)c(Cl)c1Cl	.	?	-5%	.
Cc1ccccc1C(=O)NC1CCN(Cc2nnnn2CCc2ccccc2)CC1	1	-8.1%	-2%	-5%
COC(CNC(=O)CCc1c(C)nc2c(-c3ccccc3)c(C)nn2c1C)OC	.	-2.6%	13%	-2%
CS(=O)(=O)c1[nH]nc(-c2cccc(Cl)c2)c1C#N	2	-0.1%	1%	-5%
CCOc1ccc(-c2[nH]nc3c2C(c2ccc(O)cc2)C(C#N)=C(N)O3)cc1 (centres undefined)	-4	-2.5%	-7%	-4%
COC(=O)c1cn(-c2ccccc2)nc1-c1ccccc1	-3	-2.1%	-13%	-18%
More entries follow:
SMILES	GLA inh pH 4.5	Rango complex inh	Rango release inh	miR-21 FLuc
O=C(c1ccc2ccccc2c1)N1CCN(Cc2ccccc2)CC1	.	0.7%	-2%	-32%
CC1(C)CC(NC(=O)c2ccc3c(c2)OCO3)CC(C)(C)N1	-17	-5.2%	2%	-7%
COc1ccc(C/C(N)=N/n2cnnc2)cc1	3	-0.3%	-4%	-3%
Cc1cccc(OCC(=O)N2CCN(C(=O)c3ccc([N+](=O)[O-])cc3)CC2)c1	0	0.2%	3%	2%
CCn1ncc(Br)c1C(=O)NC1CCCCCCC1	.	-5.3%	13%	-8%
O=C(NCc1cccnc1)c1ccc(Cl)c(S(=O)(=O)Nc2ccccc2C(=O)NCc2cccnc2)c1	-7	0.1%	-7%	-2%
O=C(COc1ccc2c(C(F)(F)F)cc(=O)oc2c1)Nc1ccc(N2CCOCC2)cc1	-22	?	?	-3%
COc1ccccc1Oc1coc2cc(O)ccc2c1=O	-1&-7	1.0%	1%	-13%
COc1ccc(C2=NN(C(C#N)c3ccc(OC)c(OC)c3)C(c3ccccc3)C2)cc1 (centres undefined)	-6	-0.1%	-10%	-55%
CCOC(=O)Cc1csc(NC(=O)COc2c(C)cccc2C)n1	0	-1.1%	11%	-3%
O=c1c(Cc2c(F)cccc2Cl)c(O)ccn1Cc1ccc2c(c1)OCO2	7	-1.2%	-8%	-5%
CCCc1cc(=O)[nH]c(SCC(=O)c2cc(C)n(-c3c(C)n(C)n(-c4ccccc4)c3=O)c2C)n1	0	1.6%	18%	-3%
COCCNC(=S)N(CCc1c(C)[nH]c2ccccc12)Cc1ccco1	-2	-1.5%	10%	12%
COCCN(C(=O)COC(=O)/C=C/c1ccc(C(F)(F)F)cc1)c1c(N)n(Cc2ccccc2)c(=O)[nH]c1=O	.	-0.5%	6%	.
CN(CC(=O)Nc1ccncc1)S(=O)(=O)c1ccccc1	-8	-1.4%	0%	-8%
CCn1c(COc2cccc3ccccc23)nnc1SCC(=O)OC1CCCCC1	-21	3.2%	4%	-3%
C=CCN1CCN(C(c2cccc(OC)c2OC)c2nnnn2CCC(C)C)CC1 (centres undefined)	-3	?	-7%	4%
O=C1OCCN1C(=O)[C@H]1[C@H](c2ccccc2)C(c2ccc(F)cc2)=NN1c1ccc(Br)cc1	9	?	?	.
CCOC(=O)c1ccc(CN(Cc2ccc(C)cc2)S(=O)(=O)c2cccc([N+](=O)[O-])c2)cc1	3	-6.2%	0%	0%
NS(=O)(=O)c1ccc(NC(=O)COc2ccc(S(=O)(=O)N3CCCC3)cc2)cc1	.	1.2%	?	-1%
CCOc1cccc2cc(C(=O)N3CCc4ccccc4C3)c(=O)oc12	-5	-2.5%	-10%	-9%
COCCn1c(SCC(=O)N2CCCc3ccccc32)nnc1-c1ccoc1C	1	-1.3%	-3%	-4%
Cc1cc(NC(=O)c2ccc([N+](=O)[O-])o2)ccc1NC(=O)c1ccco1	-6	0.7%	-2%	20%
CN(Cc1ccc(Br)s1)C(=O)CNC(=O)c1ccc2c(c1)OCO2	.	0.2%	4%	.
O=C(c1ccccc1)c1ccc(-c2ccc(O)cc2)cc1	-6	5.3%	?	-19%

A draw from above in order of molecular weight, highest first.
SMILES	GLA inh pH 4.5	Rango complex inh	Rango release inh	miR-21 FLuc
CCOC(=O)c1ccc(CN(Cc2ccc(C)cc2)S(=O)(=O)c2cccc([N+](=O)[O-])c2)cc1	3	-6.2%	0%	0%
COc1ccc(C2=NN(C(C#N)c3ccc(OC)c(OC)c3)C(c3ccccc3)C2)cc1 (centres undefined)	-6	-0.1%	-10%	-55%
Cc1cc(NC(=O)c2ccc([N+](=O)[O-])o2)ccc1NC(=O)c1ccco1	-6	0.7%	-2%	20%
CCOC(=O)Cc1csc(NC(=O)COc2c(C)cccc2C)n1	0	-1.1%	11%	-3%
O=C(c1ccc2ccccc2c1)N1CCN(Cc2ccccc2)CC1	.	0.7%	-2%	-32%
COc1ccccc1Oc1coc2cc(O)ccc2c1=O	-1&-7	1.0%	1%	-13%

Full records, looked up by structure. Order of values: GLA inh pH 4.5	Rango complex inh	Rango release inh	miR-21 FLuc
COC(CNC(=O)CCc1c(C)nc2c(-c3ccccc3)c(C)nn2c1C)OC reads .	-2.6%	13%	-2%
CN(Cc1ccc(Br)s1)C(=O)CNC(=O)c1ccc2c(c1)OCO2 reads .	0.2%	4%	.
O=c1c(Cc2c(F)cccc2Cl)c(O)ccn1Cc1ccc2c(c1)OCO2 reads 7	-1.2%	-8%	-5%
CCCc1cc(=O)[nH]c(SCC(=O)c2cc(C)n(-c3c(C)n(C)n(-c4ccccc4)c3=O)c2C)n1 reads 0	1.6%	18%	-3%
COc1ccccc1Oc1coc2cc(O)ccc2c1=O reads -1&-7	1.0%	1%	-13%

Other entries follow:
SMILES	GLA inh pH 4.5	Rango complex inh	Rango release inh	miR-21 FLuc
CC1CCN(C(=O)COC(=O)CNC(=O)C23CC4CC(CC(C4)C2)C3)CC1	.	1.4%	4%	.
O=C(CCc1nc2ccccc2c(=O)[nH]1)N1CCN(S(=O)(=O)c2ccccc2Br)CC1	.	-1.4%	1%	.
CCc1nc2oc3cc(OC)ccc3c(=O)c2c(=O)n1Cc1ccco1	-1	-3.4%	1%	0%
CC(O)CC(=O)NOCc1ccccc1 (centres undefined)	.	0.9%	-1%	.
O=C(Nc1nccs1)c1ccc(N2CCOCC2)c([N+](=O)[O-])c1	.	-1.6%	4%	-48%
CCn1cc(/C=C(\NC(=O)c2ccc(OC)c(OC)c2)C(=O)N2CCN(C)CC2)c2ccccc21	.	-5.2%	?	-6%
COc1cc(OC)cc(C(=O)N[C@H](C(=O)NCc2ccco2)C(C)C)c1	-13[21.1 µM]	?	6%	4%
CCOc1ccc(OCC(=O)N(C)c2c(N)n(Cc3ccccc3)c(=O)[nH]c2=O)cc1	.	-2.2%	-29%	.
O=S(=O)(c1cccc2nsnc12)N1CCOCC1	7	-2.1%	4%	0%
O=C(NC(=S)NCCC1=CCCCC1)c1ccc(Br)o1	-9	-0.8%	0%	-54%
CC(=O)Nc1ccc(NC(=O)c2ccccc2CCc2ccccc2)cc1	6	-4.7%	-8%	2%
C=CCN1C(=O)N/C(=C/c2ccccc2OCC(=O)Nc2ccc(F)cc2)C1=O	0	3.4%	-11%	-37%
O=c1ccc(-c2ccc(S(=O)(=O)Nc3ccccc3)o2)n[nH]1	.	-2.2%	?	-4%
CCC(=O)Nc1c2c(nn1-c1ccc(C)cc1C)CSC2	-9	-2.5%	5%	-5%
COc1cccc(NC(=O)c2oc3ccccc3c2NC(=O)C2CC2)c1	0	3.1%	7%	7%
CSc1ccccc1NC(=O)c1ccc(Br)o1	-19	1.0%	0%	-45%
CCc1cccc2c1NC(=O)C2(O)CC(=O)c1cccs1 (centres undefined)	6	-0.4%	9%	0%
CCN(Cc1ccccc1)Cc1c(F)cccc1F	8	4.7%	7%	0%
COC(=O)c1ccc(NC(=O)CSc2nnc(COc3ccccc3)n2C)cc1	0	2.4%	0%	-5%
O=c1c2c3c(sc2n2cnnc2n1CCc1ccccc1)CCCC3	0	2.9%	2%	-2%
NS(=O)(=O)c1ccc(NC(=O)COC(=O)Cc2c[nH]c3ccccc23)cc1	.	-0.5%	7%	.
COCC(C)NC(=O)NC1(C(F)(F)F)Oc2ccc(Cl)cc2O1 (centres undefined)	-2	-1.1%	-7%	-24%
Cc1ccccc1C(=O)N/N=C/c1ccc([N+](=O)[O-])s1	-5	?	-4%	?
Cc1cc2ncn(C(=O)c3cc(-c4ccccc4)nc4ccccc34)c2cc1C	-2	2.0%	-11%	-11%
O=c1cc(CO)oc(C(Nc2ccccn2)c2cccc(F)c2)c1O (centres undefined)	1	1.9%	13%	-1%
Further results follow.
SMILES	GLA inh pH 4.5	Rango complex inh	Rango release inh	miR-21 FLuc
O=C(NC1(c2ccccc2)CC1)C1CCC(=O)N(Cc2ccc(Cl)cc2)C1 (centres undefined)	.	0.6%	1%	0%
CC(=O)N1CCc2cc(S(=O)(=O)NCCC(=O)N3CCc4ccccc4C3)ccc21	0	1.0%	-7%	2%
Cc1ccc(S(=O)(=O)N2CCC(C(=O)OCC(=O)N(CC(C)C)C3CCS(=O)(=O)C3)CC2)cc1C (centres undefined)	.	0.1%	2%	0%
O=C(Nc1ccc2c(c1)OCO2)C1CCN(C(=O)c2cccs2)CC1	-1	2.1%	-2%	-10%
CCOc1cccc(C(=O)Nc2nccs2)c1	-10	-0.2%	0%	-48%
CN(C)CC(C)(C)CNc1ccc(S(=O)(=O)N2CCCC2)cn1	.	0.3%	-13%	.
Cc1cccc(-n2c(Cc3cc(=O)[nH]c(=O)[nH]3)nnc2SCC(=O)N2CCc3ccccc32)c1	.	1.3%	15%	-2%
CCCOc1ccc(C2c3c(oc4ccccc4c3=O)C(=O)N2CCCN2CCOCC2)cc1 (centres undefined)	2	-2.0%	1%	-21%
